Screening data (PubChem)
gsp ag: qHTS for Agonist of gsp, the Etiologic Mutation Responsible for Fibrous Dysplasia/McCune-Albright Syndrome: qHTS | gsp mutant cells, cAMP HTRF, 30 min; control for the full effect not named in the record | Potency, µM (top dose mostly 76.9 µM), without a hit: at the highest dose activation (cAMP increase), usual class: activators | 0.13% of 340,000 active; active = well fitted activation curve with a large enough effect; inconclusive = small, poorly fitted or top-dose-only effect, or another doubt; inactive = no such curve, though single readings can be large or run the other way; cell line not stated here;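 note: phosphodiesterase inhibitor Ro 20-1724 added with compounds to block cAMP breakdown; potency is the fitted concentration of half-maximal effect; nearly all actives have a fitted effect of over 60% in size; about a fifth of the inactives were tested at one dose only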
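Cells stably selected in G418 were plated at 2000/well, grown 16-24 hr, then given compounds in DMSO with the PDE inhibitor […] (300 uM solution added) for 30 min at 37C; cAMP was read by HTRF.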
Six1-Eya2 inh: qHTS Assay for Inhibitors of the Six1/Eya2 Interaction; Homeobox protein SIX1 (Homo sapiens) + Protein phosphatase EYA2 (Homo sapiens), …; 0.56% of 360,000 active; AID 651725, 2012; activity change, % (no concentration beside the values); AlphaScreen GST-Six1/His-Eya2 binding, biochemical; active compounds read low; control for the full effect not named in the record; in the data active = activity change below about -65%; inconclusive = about -30% to -65%; inactive = above about -30%; note: % is set by controls: 0 for no effect and ±100 for the full control effect
Target sequence (O00167 whole entry, looked up): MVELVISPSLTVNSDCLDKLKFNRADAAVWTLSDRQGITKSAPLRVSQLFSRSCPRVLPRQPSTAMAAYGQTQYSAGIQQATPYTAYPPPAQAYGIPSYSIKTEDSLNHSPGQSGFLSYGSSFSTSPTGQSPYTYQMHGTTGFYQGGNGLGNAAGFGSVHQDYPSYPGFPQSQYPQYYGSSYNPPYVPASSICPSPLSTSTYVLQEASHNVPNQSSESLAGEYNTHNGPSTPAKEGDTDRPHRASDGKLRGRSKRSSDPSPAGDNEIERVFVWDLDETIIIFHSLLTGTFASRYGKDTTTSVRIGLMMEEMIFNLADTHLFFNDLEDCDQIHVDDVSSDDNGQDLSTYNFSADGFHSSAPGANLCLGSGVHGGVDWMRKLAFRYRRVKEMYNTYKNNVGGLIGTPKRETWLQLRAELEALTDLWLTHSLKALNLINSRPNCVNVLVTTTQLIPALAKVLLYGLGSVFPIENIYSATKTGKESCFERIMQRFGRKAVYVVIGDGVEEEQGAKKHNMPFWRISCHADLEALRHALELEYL
Target sequence (Q15475 whole entry, looked up): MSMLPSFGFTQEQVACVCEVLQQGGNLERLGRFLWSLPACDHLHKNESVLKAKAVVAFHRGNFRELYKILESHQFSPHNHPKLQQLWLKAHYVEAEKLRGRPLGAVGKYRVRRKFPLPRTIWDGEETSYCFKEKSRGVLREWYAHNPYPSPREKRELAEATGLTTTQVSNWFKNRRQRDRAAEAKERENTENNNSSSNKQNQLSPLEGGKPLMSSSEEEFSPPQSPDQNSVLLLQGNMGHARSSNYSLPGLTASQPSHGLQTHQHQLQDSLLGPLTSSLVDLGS
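AlphaScreen with GST-Six1 and His-Eya2 (5X mix: 250 nM and 500 nM), glutathione donor and nickel acceptor beads; buffer 50 mM Tris pH 8.0, 300 mM NaCl, 1 mM TCEP; 1 h at 37 C in the dark.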
D2 PAM: Beta-Arrestin HTS for Positive Allosteric Modulators of the Human D2 Dopamine Receptor: Potentiators. AID 624464, 2012. D(2) dopamine receptor (Homo sapiens), P14416. 0.23% of 360,000 active. DiscoveRx D2 beta-arrestin cells, luminescence, 90 min; 100% = 57 uM dopamine signal. potentiation, % (no concentration beside the values); active = potentiation of 50% or more; inconclusive = 30% to 50%; inactive = 30% or less;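 note: compound concentration not given in the record; tested on top of an EC20 dose of dopamine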
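D2 cells co-treated with compound plus 50 nM dopamine (EC20) for 90 min at 37 deg C to detect potentiation. Beta-arrestin recruitment was read as enzyme-fragment luminescence after 1 h at ambient temperature. Full response was set by 57 uM dopamine.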
gsp antag: qHTS for Antagonists of gsp, the Etiologic Mutation Responsible for Fibrous Dysplasia/McCune-Albright Syndrome: qHTS | gsp-mutant cells, cAMP HTRF, 30 min; control for the full effect not named in the record | Potency, µM (series often up to 76.9 µM), inactives show at the highest dose activity change, negative = inhibition, usual class: inhibitors | 0.4% of 340,000 active | AID 624288, 2012; active = falling curve of any shape with a large fitted effect; inconclusive = falling curve, mostly with a smaller effect; inactive = flat or rising curve; cell line not stated here;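 note: intracellular cAMP measured with PDE inhibitor Ro 20-1724 present during compound exposure; potency is the fitted concentration of half-maximal effect; % is set by controls: 0 for no effect and ±100 for the full control effect; nearly all actives have a fitted effect of over 65% in size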
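HTRF cAMP read-out (cAMP-d2 plus anti-cAMP antibody-K in lysis buffer, 30 min RT). Before lysis, cells are exposed to compounds with […] for 30 min at 37C in DPBS containing Ca/Mg, BSA and Tween 20.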
CtBP-E1A blk: qHTS Assay for Inhibitors of the CtBP/E1A Interaction; CtBP / adenovirus E1A interaction (AlphaScreen); AlphaScreen GST-E1A/His-CtBP binding, 1536-well; active compounds read low; control for the full effect not named in the record; activity change, % (test concentration not listed); 0.49% of 340,000 active; in the data active means activity change below about -65%; inconclusive means about -30% to -65%; inactive means above about -30%; note: % is set by controls: 0 for no effect and ±100 for the full control effect
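Steps: dispense buffer (Tris pH 8.0, NaCl 300 mM, TCEP 1 mM, BSA, Tween 20); add 5X protein mix (GST-E1A, His-CtBP, 125 nM each); pin 23 nL compound; 2 h at 37 °C, dark; add 5X beads (50 ug/mL); 1 h; read.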
D2 agonist: Beta-Arrestin HTS for Positive Allosteric Modulators of the Human D2 Dopamine Receptor: Agonists. D(2) dopamine receptor (Homo sapiens), P14416. DiscoveRx PathHunter D2 beta-arrestin, luminescence, 90 min; 100% = 57 uM dopamine signal. activation, % (test concentration not listed). 0.084% of 360,000 active; in the data active = activation above about 40%; inconclusive = about 15% to 40%; inactive = below about 15%; note: compound concentration not given in the record; the text of the record calls up to 30% inactive
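DiscoveRx PathHunter D2 beta-arrestin cells (2,100/well) attached overnight, then compound-stimulated 90 min at 37 C in HBSS/10 mM HEPES/0.1% Tween-20 buffer; beta-galactosidase complementation read by luminescence after 1 h at ambient temperature. Dopamine 57 uM final (EC100) as control.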
* = called active by the depositor; ? = inconclusive; . = no result given; & = joins results of further samples; [ ] = another dose, or the depositor's remark.

entry	compound	gsp ag	Six1-Eya2 inh	D2 PAM	gsp antag	CtBP-E1A blk	D2 agonist
1	CCc1nc(N2CCN(C(=O)c3ccccc3)CC2)c(C#N)c2c1COC(C)(C)C2	-6.1%	-1.0	7.3	-11.5%	-7.5	-1.8
2	Cc1cc(C)nc(NC(=O)CSc2ccccn2)n1	-41.9%[inhibitor]	4.5	-5.9	11.0%	-8.0	-0.7
3	CCc1ccc(OCCCC(=O)Nc2ccc(S(N)(=O)=O)cc2)cc1	-10.3%[15.4 µM]	-12.6	4.3	0.5%	1.1	-0.8
4	CCOC(=O)C1CCN(c2cc3c(cc2NC(=O)c2cc(OC)ccc2Br)n(C)c(=O)n3C)CC1	8.6%	2.8	5.7	?	2.5	-1.7
5	C/C(=N\NC(=O)c1cccnc1)c1cc(C)oc1C	-1.8%[15.4 µM]	-5.2	-8.2	8.7%	-11.4	-2.8
6	Cc1ccc(C)c(NC(=S)NC(NC(=O)N(C)C)C(Cl)(Cl)Cl)c1 (stereo not drawn)	-36.0%[inhibitor]	1.7	-18.2	3.8%	3.9	-0.2
7	O=C(Cn1cnc([N+](=O)[O-])c1)NCCc1ccccc1	?	0.9	-3.5	6.7%	0.0	0.4
8	COc1ccc([C@H]2CC(=O)C=C(c3ccccc3)C2)cc1	4.5%	4.4	-3.8	-8.6%	.	0.0
9	Cc1c(Cl)cccc1NC(=S)NN1CCOCC1	26.0%	-0.9	-4.0	5.0%	6.6	-2.0
10	CCN1CCN(S(=O)(=O)c2ccc(Cl)c(C(=O)NCCc3ccccc3)c2)CC1	8.2%[15.4 µM]	-4.9	-68.3	-0.6%	4.3	-1.9
11	N#C/C(=C/c1ccc(N2CCCCCC2)o1)c1ccc(F)cc1	3.7%	0.8	-9.5	?	1.1	-0.9
12	O=C(N/N=C/c1ccc(N2CCOCC2)c([N+](=O)[O-])c1)c1ccc(F)cc1	-7.0%	-4.1	-15.5	-21.2%	-1.5	0.5
13	Cc1ccc(NC(=O)C2C3CCCC2C3c2ccccc2)c(C)c1 (stereo not drawn)	0.7%	30.8	-5.7	-24.2%	0.0	-0.4
14	CC1CCN(C(NC(=O)c2ccco2)C(=O)c2ccccc2)CC1 (stereo not drawn)	?	1.8	-6.5	-3.1%	2.3	-0.7
15	N#CCSc1nc2[nH]ncc2c(=O)n1-c1ccccc1Br	-22.9%	1.4	-9.4	16.8%	5.6	-2.9
16	CCN(C[C@H]1N[C@@](C)(C(=O)OC)[C@H]2C(=O)N(C)C(=O)[C@@H]12)C(=O)c1ccc(F)cc1	.	6.3	-1.6	-3.8%	4.9	-1.3
17	Cc1nn(CC(=O)NCC(C)c2ccccc2)c(=O)c2cc3occc3n12 (stereo not drawn)	?	2.2	-9.6	7.0%	7.0	-2.9
18	C[C@H](CCC(=O)NCC(=O)O)[C@H]1CC[C@H]2[C@@H]3[C@H](O)C[C@@H]4C[C@H](O)CC[C@]4(C)[C@H]3C[C@H](O)[C@]12C	.	5.3&7.5&7.7	-7.0&0.7&-5.0	-3.9%&-7.7%&35.4%	-21.2&10.2&-0.7	-1.3&-6.6&-1.5
19	CCN(CC)S(=O)(=O)c1ccc(C(=O)NCc2n[nH]c(=S)n2-c2ccccc2OC)cc1	11.0%	-8.4	-15.2	0.1%	-5.1	-3.6
20	O=C(NNC(=O)c1n[nH]c2ccccc12)c1ccccc1	-9.4%[15.4 µM]	11.5	-24.0	6.5%	-3.5	-3.4
21	Cc1ccc(-n2c(-c3ccccc3)c[n+]3c2CCc2ccccc2-3)c(C)c1	-7.4%[15.4 µM]	7.0	-8.0	-3.4%	5.3	-2.8
22	Cn1cccc1C(=O)NNC(=O)COc1ccc(Br)cc1	20.5%[15.4 µM]	-1.9	-2.4	9.2%	6.3	-4.2
23	Nc1ccc(C(=O)N(CCO)CCO)cc1	0.5%[15.4 µM]	6.4	-4.1	12.0%	-0.7	-5.9
24	O=C(C(Sc1ccccc1)c1ccccc1)N1CCN(c2ccccc2)CC1 (stereo not drawn)	-0.4%[15.4 µM]	-5.4	-13.2	-2.4%	-13.0	-2.9
25	O=C(C1CCN(S(=O)(=O)c2ccccc2)CC1)N(CCc1ccccc1)Cc1ccco1	-8.4%	-8.3	-1.9	-19.5%	-6.4	-1.9
26	COc1ccc(CNCCS(=O)(=O)NCc2ccccc2)cc1	.	2.3	-12.8	5.9%	5.9	0.1
27	C/C(=N\Nc1nc2ccccc2[nH]1)c1ccc2c(c1)OCCO2	16.0%[15.4 µM]	-11.6	-8.9	-34.4%	-16.1	0.3
28	Cc1ccc(C)c(OCc2cc(C(=O)N3CCc4sccc4C3)no2)c1	-80.4%[inhibitor]	4.1	-5.9	-19.3%	-3.1	-1.5
29	Cc1nn(CC(=O)Nc2ccc(N3CCOCC3)cc2)c(C)c1[N+](=O)[O-]	-1.0%[15.4 µM]	5.9	-19.3	-7.2%	4.4	-3.2
30	COc1cccc(-c2csc3nc[nH]c(=O)c23)c1	24.4%	11.4	-2.1	-7.6%	7.6	-2.1
31	O=C(CCl)Nc1sccc1C(=O)c1ccccc1	4.9%[15.4 µM]	5.3	-3.0	-8.3%	-5.4	-10.8
32	CCOC(=O)C1CCCCN1Cc1cn(C)nc1-c1ccccc1F (stereo not drawn)	-10.8%[15.4 µM]	10.6	-1.6	9.4%	3.8	1.8
33	COCCNC(=O)c1cc2sc3ccccc3c2s1	-25.3%	-19.4	-9.0	0.8%	-3.2	-1.5
34	O=C(c1cccc(C(=O)N2CCc3ccccc32)n1)N1CCc2ccccc21	-26.6%	-1.6	14.5	-4.2%	-1.8	-0.1
35	O=C(Cn1nc(Cc2cccnc2)c2ccccc2c1=O)Nc1cc(F)ccc1F	?	13.6	-10.0	5.2%	0.7	-2.8
36	Cc1ccc(C(O)c2ncc(-c3ccc(Cl)cc3)[nH]2)c(C)c1 (stereo not drawn)	.	-7.0	0.3	.	-8.0	-1.6
37	Cc1ccc(S(=O)(=O)NC(CC(C)C)C(=O)Nc2ccncc2)cc1 (stereo not drawn)	-19.2%	1.8	-18.0	1.3%	3.8	-1.7
38	C/C(Cn1nc([N+](=O)[O-])cc1C)=N\NC(=O)COc1ccc(Cl)cc1Cl	-41.5%[inhibitor]	3.0	7.8	-3.6%	-2.6	-0.3
39	Cc1ccc(NC(=O)c2ccn(C(=O)Nc3ccccc3)n2)c(C)c1	-4.8%	-2.7	-3.7	-1.2%	7.0	-2.1
40	O=C(NC(Cc1ccccc1)C(=O)O)c1ccc(S(=O)(=O)N2CCCC2)cc1 (stereo not drawn)	-22.0%	4.0	-3.9	6.4%	6.9	-0.6
41	COc1ccc(S(=O)(=O)N2CCc3ccccc32)cc1C(=O)N1CCN(C=O)CC1	12.1%	1.8	-3.3	4.2%	-15.8	-3.0
42	O=C(NCc1ccccc1)Nc1nnc([C@@H]2C[C@H](O)[C@@H](CO)O2)s1	.	-8.9	-30.1	.	-8.0	-4.6
43	Cc1ccc(-c2cc(C(=O)N3CCN(C(=O)c4ccco4)CC3)[nH]n2)cc1C	12.7%	0.9	-3.6	7.2%	-3.6	2.1
44	CC1CCCC(CC(N)=O)CC1 (stereo not drawn)	13.3%[15.4 µM]	5.1	-21.3	0.7%	7.4	-0.7
45	Cc1ccc(C(=O)c2ncc[nH]2)cc1	-18.0%	0.0	-11.1	5.7%	2.8	-1.7
46	O=C(NCCS(=O)(=O)NCc1ccco1)c1ccccc1	-57.7%[inhibitor]	-0.1	-20.8	5.9%	10.2	-6.6
47	Cc1c(CC(=O)N2CCC(C(=O)O)CC2)c(=O)oc2cc3c(cc12)CCC1(CCCCC1)O3	.	-1.5	-23.5	-15.2%	-7.3	-2.2
48	O=[N+]([O-])c1ccc(O)c(C=Nc2cccc3ncccc23)c1	?	?	-17.9	-18.5%	?	-2.3
49	O=C(c1nc2ccccn2c1CN1CCCC(OCc2ccccc2)C1)N1CCCC1 (stereo not drawn)	-8.1%	3.4	-7.8	-3.5%	2.5	4.2
50	COc1ccc(N2C(=O)c3ccc(C(=O)Nc4ccccc4OC)cc3C2=O)cc1	-0.7%	0.8	-2.6	-8.0%	-11.8	-4.9

Next section.
entry	compound	gsp ag	Six1-Eya2 inh	D2 PAM	gsp antag	CtBP-E1A blk	D2 agonist
51	Cc1nonc1C(=O)N/N=C/c1cc2c(cc1Br)OCO2	18.3%	-2.4	-0.5	-7.0%	-19.8	-2.7
52	Cc1cc(NC(=O)CCC(=O)N(CC(=O)NC2CCCC2)c2ccc(F)cc2)no1	-2.5%[15.4 µM]	-2.5	-13.5	20.0%	-11.7	-3.9
53	Cc1ccc(CC(=O)NCC(O)c2ccccc2)cc1 (stereo not drawn)	-5.9%[15.4 µM]	14.9	0.0	-5.3%	?	-2.2
54	CCCNC(=O)c1cccc(COc2ccccc2OC)c1	20.1%	1.5	-3.8	-6.6%	.	1.4
55	Cc1ccc(/C=N/NC(=O)CNC(=O)c2ccc(S(=O)(=O)N3CCCC3)cc2)o1	-34.7%[inhibitor]	-1.9	-5.4	2.1%	.	-5.6
56	CCN1C(=O)CC(N2CCN(c3ccc(Cl)cc3)CC2)C1=O (stereo not drawn)	-3.4%	5.6	7.7	9.9%	9.5	-1.0
57	CN(CCC1CCOCC1)C(=O)CC1C(=O)NCCN1CC1CCCCC1 (stereo not drawn)	13.0%[15.4 µM]	11.2	-5.0	7.2%	1.0	-12.5

Single records (already shown). Screens in order: gsp ag	Six1-Eya2 inh	D2 PAM	gsp antag	CtBP-E1A blk	D2 agonist
Entry for `Cc1ccc(-n2c(-c3ccccc3)c[n+]3c2CCc2ccccc2-3)c(C)c1` = -7.4%[15.4 µM]	7.0	-8.0	-3.4%	5.3	-2.8
Entry for `O=C(C1CCN(S(=O)(=O)c2ccccc2)CC1)N(CCc1ccccc1)Cc1ccco1` = -8.4%	-8.3	-1.9	-19.5%	-6.4	-1.9
